# RecA intein inh = inhibitors of M. tuberculosis RecA intein splicing. P9WHJ3. cell-free RecA intein splicing, fluorescence. inhibition, %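 (about 9 µM by stock and volumes)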. actives 0.75% (n = 290,000). AID 2221; in the data active = inhibition above about 30%; inconclusive = no clear call, values can overlap the other calls;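 note: 0% = vehicle wells and 100% = reference inhibitor control wells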
# Target sequence (P9WHJ3 whole entry, looked up): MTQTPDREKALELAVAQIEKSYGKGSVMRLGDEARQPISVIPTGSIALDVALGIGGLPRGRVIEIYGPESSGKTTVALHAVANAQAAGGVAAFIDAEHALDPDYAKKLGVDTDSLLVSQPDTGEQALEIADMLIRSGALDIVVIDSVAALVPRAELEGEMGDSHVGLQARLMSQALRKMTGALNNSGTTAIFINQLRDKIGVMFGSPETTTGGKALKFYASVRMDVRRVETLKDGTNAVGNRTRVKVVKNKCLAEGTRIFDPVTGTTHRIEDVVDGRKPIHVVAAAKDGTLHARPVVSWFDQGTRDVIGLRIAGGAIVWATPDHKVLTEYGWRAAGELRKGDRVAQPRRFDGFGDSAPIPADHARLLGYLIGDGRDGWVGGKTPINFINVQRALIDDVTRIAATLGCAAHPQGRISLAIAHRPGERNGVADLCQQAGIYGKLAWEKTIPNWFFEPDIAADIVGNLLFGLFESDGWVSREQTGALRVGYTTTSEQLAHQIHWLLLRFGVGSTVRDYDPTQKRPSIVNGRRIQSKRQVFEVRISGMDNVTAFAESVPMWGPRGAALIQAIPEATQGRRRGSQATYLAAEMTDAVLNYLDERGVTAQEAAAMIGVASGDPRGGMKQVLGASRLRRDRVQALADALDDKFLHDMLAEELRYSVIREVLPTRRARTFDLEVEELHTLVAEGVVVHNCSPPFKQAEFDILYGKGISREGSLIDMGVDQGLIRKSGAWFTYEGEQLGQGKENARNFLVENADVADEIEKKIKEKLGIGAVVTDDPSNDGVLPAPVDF
# YopH inh = blocks Yersinia enterocolitica YopH tyrosine phosphatase; fluorescence Ex485/Em525; inhibition, %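 (about 10 µM by stock and volumes)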; actives 0.16% (n = 140,000); AID 898;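 active = inhibition of 50% or more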;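 note: controls were vehicle for no effect and minimum signal wells for full effect; inactives centre near -20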
# Arbovirus inh = antivirals against arbovirus infection | inhibition, % at 10 µM | actives 0.37% (n = 200,000) | arbovirus infection cell-based antiviral screen | AID 1251;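 active = inhibition from about 30%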;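 note: bluetongue infection of BSR cells; cell survival read as ATP light after 72 h; 0% = infected wells without compound and 100% = uninfected wells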
# Mtb H37Rv = M. tuberculosis H37Rv growth inhibitors, H37Rv strain (AID 1626); M. tuberculosis H37Rv growth inhibition; higher % means a stronger effect; inhibition, % at 10 µM; hits with a dose series show IC50 in µM; actives 0.95% (n = 220,000);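 active = confirmed in a dose series; inconclusive = inhibition above 80% but not taken into the dose series; inactive = below 80% or under 30% at every dose of the series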;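 note: bacteria incubated seven days before Alamar blue readout; 0% = bacteria only wells and 100% = bacteria with antibiotic wells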
# Mtb betalactam = beta-lactam sensitization of Mtb H37Rv. M. tuberculosis H37Rv growth with meropenem, percent inhibition; hits of this screen are not shown here. inhibition, % at 25 µM. actives 0.27% (n = 330,000). AID 434955;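 active = about 74% or more and at least 40 points above the plate without the antibiotic, then above 30% in a dose series; inconclusive = first-round hits that could not be retested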;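 note: growth measured after seven days incubation then overnight dye step; 0% = bacteria only wells and 100% = bacteria with antibiotic; twin plates without the antibiotic show which effects depend on it; some results filed as inactive read as strong as hits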
# Arbovirus inh repeat = second read-out of Arbovirus inh, no call of its own (marks repeat the call); inhibition, %; measured here: 10K subset replicate screen; many hits read low in the repeat;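 first of two repeat runs on a subset; 0% = infected and 100% = uninfected wells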
# * hit, by the source's call; ? = inconclusive; / = no result given. Not all compounds are listed; count on the stated rates, not on these rows.
SMILES,RecA intein inh,YopH inh,Arbovirus inh,Mtb H37Rv,Mtb betalactam,others
COc1ccc(S(=O)(=O)N2CCC(C(=O)N3CCOCC3)CC2)cc1,-2.9,-22,0,7%,-12,
COC(=O)Cc1ccc(NC(=S)NNC(=O)C2CC2)cc1,-0.9,/,/,-3%,-8,
CC(Oc1ccc(Br)cc1)C(=O)N1CCN(c2ccccn2)CC1 (stereo not given),0.4,/,/,/,1,
CCCn1c(C(C)NC(C)=O)nc2ccccc21 (stereo not given),-0.2,-28,5,-7%,1,Arbovirus inh repeat=0
CCc1ccc(NC(=O)CC2C(=O)NCCN2C(=O)c2ccc(F)cc2)cc1 (stereo not given),-2.4,/,/,/,-5,
O=C1CCN(Cc2ccc(O)cc2)CCN1[C@H](CO)c1ccccc1,-3.2,/,/,/,-10,
Cc1ccccc1-c1nc(CS(=O)(=O)CC(=O)NCCCN2CCN(C)CC2)c(C)o1,1.2,/,/,/,1,
CCN(C(=O)c1cc2c(s1)-c1ccccc1OC2)c1cc(OC)ccc1OC,8.5,/,/,/,6,
COc1ccc(NS(=O)(=O)c2cc3c(cc2C)N(C(C)=O)CCO3)cc1OC,4.2,/,/,/,-6,
O=C(NCCc1csc(-c2ccccc2)n1)c1ccc(Br)o1,0.2,-28,0,19%,3,
C[C@H](NC(=O)c1[nH]cnc1C(=O)Nc1ccccc1)C(=O)OC(C)(C)C,1.0,/,/,1.7µM*,99,
O=C(c1c[nH]c2ccc(S(=O)(=O)N3CCOCC3)cc2c1=O)N1CCN(c2ccccn2)CC1,-0.5,5,2,-3%,/,
Cc1ccc(SCC(=O)O/N=C(\N)c2cccc([N+](=O)[O-])c2)cc1,8.2,0,1,/,-11,
COc1ccc(N2CCN(CCNC(=O)CCC(=O)NNc3nc4ccccc4c4nc(C)nn34)CC2)cc1,-2.5,/,/,/,25,
N#Cc1ccc(Cn2cc(C=O)c3ccccc32)cc1,1.5,/,/,/,6,
Cc1ccc(NC(=O)NC(=O)N(C(C)C)S(C)(=O)=O)nc1,/,-12,5,3%,2,
CCCCCn1c(CN2CCN(Cc3ccccc3)CC2)nc2c1c(=O)n(C)c(=O)n2C,1.6,-16,-7,-7%,-11,
c1ccc(NCc2ccccn2)cc1,-2.0,/,2,3%,-10,
CCSc1nnc(-c2cc(Br)ccc2N)c(=O)[nH]1,0.4,/,18,3%,-3,
COc1ccc2c(c1)CC/C(=C\C=C\c1ccccc1OC)C2=O,6.3,-21,-5,2%,98,
COc1cc(OC)cc(C(=O)N[C@H](C(=O)Nc2cc(C)cc(C)c2)C(C)C)c1,-5.0,/,-3,2%,-6,
O=C(O)C1C2CCC(C2)C1C(=O)Nc1ccc(Cl)c(Cl)c1 (stereo not given),1.0,/,/,/,-6,
C/C(=N\NC(=O)c1ccco1)c1ccc(NC(=O)c2ccccc2)cc1,-2.5,/,-14,-3%,-3,
COc1ccccc1NC(=O)CCN1CCN(C)CC1,1.2,/,1,4%,1,
C/C(=N\OCc1ccc(C#N)cc1)c1cc2ccccc2o1,/,/,/,8%,7,
COc1ccccc1C(=O)NC(=O)COc1ccc(Cl)cc1Cl,1.8,/,/,/,-3,
CC1CCc2nc(NC(=O)C3CCCO3)sc2C1 (stereo not given),3.3,6,-2,-4%,-5,
Cc1cc(C(=O)NNC(=S)NCC2CCCO2)cs1 (stereo not given),0.0,-9,3,0%,-10,
Brc1ccccc1OCCCCN1CCCCC1,0.6,/,/,/,3,
O=C(CN1CCc2ccccc2C1)Nc1ccc(OC(F)(F)F)cc1,0.7,/,/,/,-3,
CCCC(C)c1nnc(NC(=O)C2CCCO2)s1 (stereo not given),-0.9,-65,-4,-1%,-1,
O=C(Nc1cccc2nsnc12)c1cccnc1Cl,-5.4,-15,5,-6%,0,
CCc1ccc(C(C)NC(=O)Cc2ccc(F)cc2)cc1 (stereo not given),0.1,/,-13,10%,4,
O=C(O)CCCC(=O)N1N=C(c2ccccc2)CC1c1cccs1 (stereo not given),-3.2,/,/,-4%,-5,
CC(CCc1ccccc1)NC(=O)Cn1cccc1C(=O)c1ccccc1 (stereo not given),0.5,/,/,/,1,
COc1ccc(Cl)cc1NC(=O)COC(=O)CCCC1=NS(=O)(=O)c2ccccc2N1,-3.0,/,/,/,4,
O=S(=O)(c1ccc(Cl)cc1)N1CCN(CCc2ccncc2)CC1,1.7,/,/,/,-13,
COc1ccc(/C=C/CN2CCN(CC(C)C)C(CCO)C2)cc1 (stereo not given),-0.4,/,-5,8%,-3,
CC(C)(C)NC(=O)COC(=O)CCC(=O)c1cccs1,-1.5,/,7,-8%,-5,
CC1CN(C2CCN(C(=O)COc3ccccc3)CC2)CC(C)O1 (stereo not given),1.5,14,3,-13%,-5,

# Some of these compounds in order of molar mass, rising.
SMILES,RecA intein inh,YopH inh,Arbovirus inh,Mtb H37Rv,Mtb betalactam,others
O=C(O)CCCC(=O)N1N=C(c2ccccc2)CC1c1cccs1 (stereo not given),-3.2,/,/,-4%,-5,
CCc1ccc(NC(=O)CC2C(=O)NCCN2C(=O)c2ccc(F)cc2)cc1 (stereo not given),-2.4,/,/,/,-5,
O=C(c1c[nH]c2ccc(S(=O)(=O)N3CCOCC3)cc2c1=O)N1CCN(c2ccccn2)CC1,-0.5,5,2,-3%,/,

# Six entries picked at random from the list so far:
SMILES,RecA intein inh,YopH inh,Arbovirus inh,Mtb H37Rv,Mtb betalactam,others
COc1ccccc1NC(=O)CCN1CCN(C)CC1,1.2,/,1,4%,1,
Brc1ccccc1OCCCCN1CCCCC1,0.6,/,/,/,3,
CC(CCc1ccccc1)NC(=O)Cn1cccc1C(=O)c1ccccc1 (stereo not given),0.5,/,/,/,1,
CC(C)(C)NC(=O)COC(=O)CCC(=O)c1cccs1,-1.5,/,7,-8%,-5,
COc1ccc(/C=C/CN2CCN(CC(C)C)C(CCO)C2)cc1 (stereo not given),-0.4,/,-5,8%,-3,
C/C(=N\NC(=O)c1ccco1)c1ccc(NC(=O)c2ccccc2)cc1,-2.5,/,-14,-3%,-3,

# Later entries.
SMILES,RecA intein inh,YopH inh,Arbovirus inh,Mtb H37Rv,Mtb betalactam,others
CC1CC(=O)c2c(cc3c(-c4c(O)cc(O)c5c(O)c6c(cc45)OC(C)CC6=O)c(O)cc(O)c3c2O)O1 (stereo not given),96*,/,5,-9%,14,
CCCCC(=O)Nc1ccc(NC(=S)NC(=O)CC)cc1OC,-3.8,-28,-6,12%,-2,
CC(=O)c1ccc(NC(=O)c2sc3nc4n(c(=O)c3c2C)CCCCC4)cc1,3.5,/,/,/,7,
Cc1c(C(=O)NNC(=O)c2ccncc2)oc2ccc(Br)cc12,2.1,/,/,/,21,
CC(C)C(NC(=O)c1ccc2c(c1)OCO2)C(=O)N/N=C\c1ccco1 (stereo not given),1.1,-33,2,-6%,5,
CCN(CC)S(=O)(=O)c1cccc(-c2nnc(SCC(=O)NC3CCCCCCC3)n2N)c1,3.0,6,-10,1%,-5,
O=C(c1ccc(Cl)cc1)C(Cn1cncn1)C(Sc1ccccc1)c1ccccc1 (stereo not given),3.2,-20,-1,-10%,85,
CCOC(=O)c1c(NC(=O)Cc2ccccc2)sc2c1CC(C)(C)NC2(C)C,3.5,/,/,/,10,
Cc1ccc(NC(=O)CN(c2ccc(Cl)cc2)S(=O)(=O)c2cc([N+](=O)[O-])ccc2Cl)cc1,0.2,-5,-2,6%,-1,
Cc1ccc(-n2c(=O)cc(N3CC(C)OC(C)C3)[nH]c2=O)cc1 (stereo not given),-0.7,/,-7,3%,-1,
COc1cccc(C2C(C#N)=C(N)OC(C(C)(C)C)=C2C#N)c1 (stereo not given),-3.2,-52,2,-8%,-1,
CC(C)CC(=O)NC(=S)NNC(=O)c1ccc(NC(=O)C2CCCCC2)cc1,-0.4,-9,-15,?,98,
CC1CCC2(CC1)NC(=O)N(CC(=O)NCc1cccs1)C2=O (stereo not given),-2.9,-15,-9,-6%,-4,
CCOC(=O)C1=C(C)NC(C)=C(C(=O)OCC)C1c1cc2ccc(C)cc2[nH]c1=O,-1.3,14,4,-9%,-7,
COc1ccccc1OCC(O)CN1CCOCC1 (stereo not given),-0.9,/,/,/,-1,
COc1ccc(NC(=O)Cn2nnc(C(=O)NCCc3ccccc3)c2N)cc1,0.8,/,4,2%,-6,
Cc1cccc(NC(=O)C(NS(=O)(=O)c2ccc3c(c2)CCC(=O)N3)c2ccccc2)n1 (stereo not given),-1.0,-18,-4,-7%,-12,
CCc1ccc(/C=C/C(=O)c2ccc(N3CCOCC3)cc2)cc1,3.8,-13,21,2%,8,
COc1cc(-c2nc(-c3ccccc3)c(-c3cccs3)[nH]2)cc(OC)c1O,0.3,-15,-37,-5%,10,
COc1ccc(CCN2CC(C(=O)NCCc3ccc(F)cc3)CCC2=O)cc1 (stereo not given),1.3,/,/,/,6,
COc1cccc(NC(=O)CN(C)C(C)C(=O)Nc2ccc(C(C)=O)cc2)c1 (stereo not given),2.0,/,1,5%,3,
COc1ccc(CNC(=O)N2CCN(S(=O)(=O)c3ccccc3)CC2)cc1,0.8,/,/,/,-4,
CN1CCN(C(c2cccc(C(F)(F)F)c2)c2nnnn2Cc2ccccc2)CC1 (stereo not given),/,-18,7,15%,-9,
CCN1CCN(CC(=O)Nc2cc3c(cc2C(C)=O)OCO3)CC1,-2.6,/,13,-2%,-8,
CCCCCCOC(=O)c1ccccc1N,-2.4,-35,5,1%,16,
COc1ccc(CNC2CCCC2)c(OC)c1OC,-2.0,-19,3,-3%,-2,
CCC(=O)Nc1cc(-c2nn(C)c(=O)c3ccccc23)ccc1N1CCCCC1,1.4,-25,-44,22%,1,
Cn1c(N)c(C(=O)c2ccc(C#N)cc2)c(=O)n(C)c1=O,5.3,-33,-4,-16%,-3,
CC(=O)Nc1ccc(S(=O)(=O)NCC(=O)OCC(=O)c2cc(C)n(-c3ccc4c(c3)OCO4)c2C)cc1,1.5,-22,-4,-8%,-3,
Cc1cc([N+](=O)[O-])nn1CC(=O)NCCCN1CCOCC1,-0.5,/,/,/,0,
COCC(=O)NCCSc1c(C)[nH]c2ccccc12,0.5,-55,6,-1%,-1,
O=C(NCC(c1ccco1)N1CCc2ccccc21)C(=O)Nc1ccc(F)cc1F (stereo not given),-1.9,/,/,/,-5,
O=C(NCCc1cn2ccccc2n1)c1cc(COc2c(F)cccc2F)on1,-7.5,/,-7,0%,1,
COc1ccccc1CNC(=O)c1[nH]c(C)c(C(C)=O)c1C,-0.6,/,/,/,-5,
Cc1cccc(/C=C2\Oc3cc(OS(C)(=O)=O)ccc3C2=O)c1,0.5,-32,-14,-3%,7,
COC(=O)C1=C(C)N(C)C(=S)NC1c1ccc(OC)cc1OC (stereo not given),5.3,/,8,0%,-6,
Cc1c(NC(=O)CSc2ccccc2C(=O)Nc2cccnc2)c(=O)n(-c2ccccc2)n1C,3.0,6,9,11%,-8,
CCOc1cc(CNCCCN2CCOCC2)ccc1OCC(=O)NC(C)(C)C,1.8,/,-1,-6%,-2,
COc1ccccc1CNC(=O)C1CCC(CNS(=O)(=O)c2ccc(F)cc2)CC1 (stereo not given),1.2,/,/,/,-1,
N/C(=N\OC(=O)c1cccs1)c1cccc(Br)c1,-0.1,/,-4,?,70,
CC(=O)c1ccc(N2CCN(C(=O)Cc3cccs3)CC2)cc1,-5.7,/,5,1%,2,
Cc1cc(C)c(C)c(S(=O)(=O)Nc2ccccc2C(=O)NCCCn2ccnc2)c1C,2.4,-21,-6,3%,/,Arbovirus inh repeat=-6
COc1ccc(-n2nc(C(=O)NCC(=O)NCCCN3CC(C)CC(C)C3)c3ccccc3c2=O)cc1Cl (stereo not given),0.2,/,/,/,6,

# High-throughput results: PubChem, several laboratories
